# From PubChem BioAssay
# BasE inh: BasE siderophore biosynthesis inhibition; purified BasE, fluorescence polarization binding displacement; inhibition, % (test concentration not listed); actives 0.1% (n = 84,000); AID 485350;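 active = both replicates above 25% with normal brightness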;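 also: 0% = negative plate control signal and 100% = positive plate control signal; stock transfer was 100 nL into about 30 µL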
# LANA-nucl inh: inhibitors of KSHV LANA binding to nucleosomes. FITC-LANA1-23 / chicken nucleosome fluorescence polarization; active compounds read low. actives 0.3% (n = 51,000). AID 720717. z-score (test concentration not listed);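 active = both repeat wells score below -2 in polarization z-score versus plate sample wells, excluding overly bright wells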;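 also: 100 nL library stock added to about 30 µL; numbers are from one replicate; some results filed as inactive read as strong as hits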
#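 test system = FITC-LANA peptide and chicken nucleosomes | amount = 240 nM purified chicken nucleosomes (480 nM peptide binding sites), final | reagent = 50 nM FITC-LANA1-23 probe | medium = TEN-BT buffer, pH 7.5 | doses = single compound addition by pin transfer, 100 nL per well | timing = 10–45 min, room temperature | detection = fluorescence polarization | repeats = duplicate plates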
# * marks the source's active call; other numbers are inactive results; / = not tested or not shown; & = joins results of further samples.
# Each structure is followed by: BasE inh | LANA-nucl inh
> CC(C)NC(=O)CN
  1.7 | /
> CC1CCc2cc(F)ccc2N1C(=O)CN1C(=O)c2ccccc2S1(=O)=O (configuration not stated)
  -0.5 | 0.209
> C/C(C(=O)c1ccc(Cl)cc1)=[N+](/[O-])C1CCC/C1=N\O (configuration not stated)
  2.8 | /
> O=c1c(Br)c(N2CCOCC2)cnn1-c1ccccc1
  1.2 | /
> CCN(CC)C(=O)Nc1c(-c2c(Cl)cccc2Cl)noc1C
  -0.9 | 0.905
> O=C1CN(Cc2cc(=O)oc3cc4c(cc23)CCC4)CCN1
  -2.3 | /
> c1ccc(OCCNCCOc2ccccc2)cc1
  -2.6 | /
> COc1ccccc1-c1c(C)nn2c(SCC(=O)N3CCOCC3)cc(C)nc12
  3.2 | 0.502
> Cc1cc(C(=O)N(Cc2ccccc2)c2ccccc2)no1
  -0.7 | 0.907
> Cc1cc(NS(=O)(=O)c2ccc(NC(=O)NC(C)(C(F)(F)F)C(F)(F)F)cc2)no1
  0.0 | 0.606
> O=C1CCN(C(=O)CCc2nc3ccccc3s2)CC1
  -1.6 | /
> CCOC(=O)N1CCC2(CC1)C(C(=O)C13CC4CC(CC(C4)C1)C3)C2(C#N)C#N (configuration not stated)
  2.3 | -0.174
> Cc1ccn(S(=O)(=O)CC23CCC(CC2=O)C3(C)C)n1 (configuration not stated)
  / | -0.381
> Cc1ccc(NC(=O)CC(NCCc2ccccc2)C(=O)O)cc1 (configuration not stated)
  0.8 | /
> CCC(CC)NC(=O)Nc1ccccc1C(F)(F)F
  3.6 | 0.273
> O=C(O)Cn1ncc2ccccc2c1=O
  -0.5 | -0.768
> O=C(O)CCc1ccc(-c2ccc(F)cc2)n1CC1CCCO1 (configuration not stated)
  -2.3 | 2.7
> Cc1nc2ccc(C(=O)NCc3ccccc3CN3CCCC3)cc2nc1C
  0.8 | /
> O=C(NCC1CCCO1)C1CCCN1C(=O)Nc1ccc(Cl)cc1 (configuration not stated)
  -0.5 | -0.922
> COc1ccc(C(O)CCC(=O)O)cc1 (configuration not stated)
  1.4 | -1.22
> CCCn1c(N)c(C(=O)CN2CCc3ccccc3C2)c(=O)[nH]c1=O
  0.8 | /
> Cc1cccc(NC(=O)NCCN2CCOCC2)c1
  1.7 | -1.75
> CCCCSC1=C(C#N)C(=O)NC(c2ccc(OC)cc2)S1 (configuration not stated)
  4.0 | -0.364
> O=c1[nH][nH]c(=S)n1C1Cc2ccccc2C1
  1.5 | -2
> S=C1CCCN1c1ccccc1
  -4.1 | 1.01
> Cc1cc(C)c(OCC(=O)Nc2cc(-c3nc4ncccc4o3)ccc2C)c(Cl)c1
  0.0 | /
> Cc1ccccc1Nc1nc(NCCN(CC(C)C)CC(C)C)nc2c1cnn2C
  -10.7 | 0.458
> Cc1ccc(-n2ncc(C(=O)NCCCN3CCCCC3)c2-n2cccc2)cc1
  -3.9 | -0.494
> O=C(Cc1ccccc1)NCC(=O)N1CCN(c2ccccc2)CC1
  4.4 | -0.66
> O=C1CCN(NC(=O)c2cccnc2)C(=O)N1
  -1.5 | 1.35
> CC1CCC(N(C)c2nc(C(F)(F)F)nc3ccccc23)CC1 (configuration not stated)
  0.3 | /
> COC(=O)CCCCC1SCC(NC(=O)OC)C1NC(=O)OC (configuration not stated)
  2.2 | 0.122
> CN1CCc2nc(NC3=NCCCCC3)sc2C1
  2.2 | /
> N#C/C(=C(/O)Cn1cc(S(=O)(=O)N2CCCC2)ccc1=O)c1nc2ccccc2[nH]1
  0.8 | /
> CC1(C)CC(NC(=S)Nc2ccc(S(=O)(=O)N3CCOCC3)cc2)CC(C)(C)N1
  -28.8 | /
> CN(C)c1nc(OCC(=O)NC(C)(C)C)nc(N(C)C)n1
  5.9 | 0.194
> Cc1ccc2oc(=O)n(CC(=O)OCCC(C)C)c2c1
  1.1 | -1.75
> CCCCNC(=O)C1c2cc(OC)c(OC)cc2C(=O)N(C)C1c1ccc(OC)cc1 (configuration not stated)
  -5.3 | 0.54
> CC(NC(=O)C1CCCN(C(=O)N(C)C)C1)c1ccccc1 (configuration not stated)
  1.6 | -0.976
> O=C(CCn1c(=O)oc2ccccc21)NC1CCCCC1
  2.6 | -0.688
> Nn1cnnc1SC(CNS(=O)(=O)c1ccc(Cl)cc1)c1ccccc1 (configuration not stated)
  -0.5 | /
> COC(=O)Sc1nnc(-c2ccc(C)cc2)o1
  1.8 | -0.702
> COC(=O)C1CN(C(=O)c2ccccc2Cl)c2ccccc2O1 (configuration not stated)
  -0.3 | 0.89
> CCCOC(=O)CC1Sc2ccc(C(F)(F)F)cc2NC1=O (configuration not stated)
  1.1 | -0.905
> CNCC(=O)Nc1ccccc1C(F)(F)F
  -0.6 | /

# Retrieved one by one from above, five records:
# Each structure is followed by: BasE inh | LANA-nucl inh
> CC(C)NC(=O)CN
  1.7 | /
> CCC(CC)NC(=O)Nc1ccccc1C(F)(F)F
  3.6 | 0.273
> C/C(C(=O)c1ccc(Cl)cc1)=[N+](/[O-])C1CCC/C1=N\O (configuration not stated)
  2.8 | /
> CC1(C)CC(NC(=S)Nc2ccc(S(=O)(=O)N3CCOCC3)cc2)CC(C)(C)N1
  -28.8 | /
> O=C1CCN(NC(=O)c2cccnc2)C(=O)N1
  -1.5 | 1.35

# Ordered by SMILES length (largest number first): part of the list above.
# Each structure is followed by: BasE inh | LANA-nucl inh
> COC(=O)C1CN(C(=O)c2ccccc2Cl)c2ccccc2O1 (configuration not stated)
  -0.3 | 0.89
> COC(=O)Sc1nnc(-c2ccc(C)cc2)o1
  1.8 | -0.702
> CNCC(=O)Nc1ccccc1C(F)(F)F
  -0.6 | /

# Later entries
# Each structure is followed by: BasE inh | LANA-nucl inh
> CCN1C(=O)C(C(=O)N(Cc2ccccc2)Cc2ccccc2)C2CC1(C)Oc1ccccc12 (configuration not stated)
  1.7 | /
> COc1ccc(Cn2c(O)c(/C=N/Nc3nc(C)cc(C)n3)c3ccccc3c2=O)cc1
  -0.2 | /
> N#Cc1ccc(/C=C2/N=C(SCC(=O)N3CCCC3)N(C3CCCCCC3)C2=O)cc1
  1.2 | /
> Cc1[nH]nc(NC2=CC(=O)CC(C)(C)C2)c1-c1ccc(Cl)cc1
  -4.6 | 0.34
> CCCn1c(=O)c2c(C(F)(F)F)cc(-c3ccco3)nc2n(CCC)c1=O
  2.9 | /
> N#CCc1c(C#N)c(N)nc(N2CCCC2)c1C#N
  1.1 | /
> COc1ccc(OC(=O)OCC(C)C)cc1
  1.6 | 0.308
> CC(C(=O)OCC(=O)c1ccc(F)cc1)N1C(=O)C2C3C=CC(C3)C2C1=O (configuration not stated)
  -2.7 | 1.18
> CCc1cccc(NC(=O)c2ccccn2)c1
  -2.6 | /
> CCN(CC)CCSc1nnc2c3cc(C)ccc3n(C)c2n1
  0.7 | -0.267
> O=C1CC(c2ccccc2)n2nc(NS(=O)(=O)c3ccccc3)nc2N1 (configuration not stated)
  -1.4 | /
> CC1(c2ccc(Cl)cc2)CC(C)(C)N(C(=O)c2cccnc2)c2ccccc21 (configuration not stated)
  2.7 | /
> O=C(CN(C(=O)Cn1nnc(-c2ccc(F)cc2)n1)c1ccccc1C(F)(F)F)NCc1ccco1
  -3.1 | 1.25
> CCOc1ccc2c(c1)-c1c(ss/c1=N\NC(=O)c1cccnc1)C(C)(C)N2
  3.0 | 0.116
> Cc1ccc(C(=O)Nc2cccc(/C=N/N3CCOCC3)c2)cc1
  -0.1 | /
> CC(C)n1c(-c2ccccc2)nc2ccccc21
  -5.3 | /
> Cc1ccc2oc(=O)n(CC(=O)O)c2c1
  -0.6 | 1.13
> CN(C)C(=S)Nc1ccc2c(c1)OCO2
  -2.0 | -0.0055
> CSC1=NSC2=NS(=O)(=O)CCN12
  -2.0 | /
> Cc1ccn2c(NS(=O)(=O)c3ccc4c(c3)OCCO4)c(-c3cccs3)nc2c1
  -0.3 | /
> COc1ccc(OC(=O)/C=C/c2sc3ccccc3c2C)cc1
  -0.9 | /
> CCOC(=O)C1=C(C)Nc2ccccc2N=C1NC(=O)c1oc2ccccc2c1COC
  0.2 | /
> CCOC(=O)Cn1nc2n(c1=O)-c1ccccc1SC2
  2.2 | -0.297
> COc1cccc(NC(=O)N(Cc2cc3ccc(C)cc3n3nnnc23)CC2CCCO2)c1 (configuration not stated)
  -1.4 | -0.04
> COc1ccc(C(CC(=O)NC2CC2)n2cccc2)cc1 (configuration not stated)
  1.6 | -0.78
> Cc1cccc(C)c1NC(=O)CCC(=O)O
  1.7 | -0.166
> CCCCNC(=O)c1cccc(N2CCCC2=O)c1
  -0.1 | 1.14
> CCCC1CC(C)(c2csc(NCC)n2)OC1=O (configuration not stated)
  -0.1 | 0.172
> CCOc1ccc(/C(O)=C2\C(=O)C(=O)N(Cc3cccnc3)C2c2ccc(N(C)C)cc2)c(C)c1 (configuration not stated)
  1.7 | 0.205
> COc1ccc(C(=O)N2CCC(C(=O)Nc3ccc4c(c3)OCCO4)CC2)cc1
  0.4 | -0.201
> CC1CCCN(CC(=O)c2ccc(Cl)s2)C1 (configuration not stated)
  -3.6 | /
> CN(C)S(=O)(=O)N1CCCc2ccccc21
  0.2 | 0.243
> CONS(=O)(=O)c1ccc(OCC(=O)OC)cc1
  0.8 | 1.33
> CCOC(=O)C1=C(CC)Nc2ccccc2N=C1NC(=O)C1Cc2ccccc2CN1S(=O)(=O)CC (configuration not stated)
  -3.3 | /
> CN(CC(=O)OC1CCOC1=O)S(=O)(=O)c1ccc(Cl)cc1 (configuration not stated)
  3.6 | /
> Cc1ccc(CS(=O)(=O)c2ccccc2-c2nnc(-c3ccc(Cl)cc3)o2)cc1
  / | -0.323
> Cc1cccc(N=C(N2CCOCC2)P(=O)(N2CCOCC2)N2CCOCC2)c1
  3.3 | /
> CC(=O)N1c2ccc(S(=O)(=O)NCC3CCC(C(=O)N4CC(C)CC(C)C4)CC3)cc2CC1C (configuration not stated)
  3.5 | -0.437
> COc1ccc(OC)c(NS(=O)(=O)c2cc(-c3cc(C)no3)ccc2C(C)C)c1
  0.9 | /
> CCn1c(SCC(=O)NC2CCCC2)nnc1C(C)C
  1.3 | -0.221
> CCCCn1c(CSc2ncccc2C(=O)O)nc2cc(S(=O)(=O)N3CCOCC3)ccc21
  0.2 | /
> CC(C)Oc1cc(N2C(=O)CSCC2=O)c(Cl)cc1Cl
  / | -0.822
> CCC1C(=O)N=C(SCC(=O)Nc2nc3ccc(C)cc3s2)NC1=O (configuration not stated)
  -3.7 | 1.77
> COC(=O)c1ccccc1NC(=O)CC1Sc2ccccc2NC1=O (configuration not stated)
  2.4 | 0.0465
> CCOC(=O)CN1C(=O)C2(OCCCCO2)c2ccccc21
  3.5 | 0.337
> CCc1cccc(NC(=O)C(CC(C)C)NS(=O)(=O)c2ccc3c(c2)CCN3C(C)=O)c1 (configuration not stated)
  2.3 | -0.0685
> NC(=O)c1cc2ccc(O)cc2oc1=O
  3.2 | -0.517
> CN(C)C(CNS(=O)(=O)c1ccc(O)c(C(=O)O)c1)c1ccccc1 (configuration not stated)
  2.1 | /
> CCCCNC(=O)c1cc2c(s1)-c1c(C)nn(-c3ccccc3)c1CC2
  0.7 | 0.659
> CC(CNC(=O)Cn1c(=O)oc2ccccc21)c1ccccc1 (configuration not stated)
  0.5 | -0.244
> N#C/C(=C\c1ccc(-c2ccc(SC(F)F)cc2)o1)C(=O)Nc1nc2ccccc2s1
  13.7 | /
> CC(C#N)Sc1nnc(-c2cccs2)n1CC1CCCO1 (configuration not stated)
  1.4 | /
> O=C(CCC1CCCCC1)NCc1cccs1
  22.9 | -0.402
> COC(=O)C1CCN(S(C)(=O)=O)CC1
  0.7 | -0.819
> O=C(Cn1c(CCCO)nc2ccccc21)NC1CC1
  2.2 | /
> CCN1CCc2c(sc3c2C(=O)NC(c2ccc(COc4ccc(Cl)c(Cl)c4)o2)N3)C1 (configuration not stated)
  20.3 | 0.851
> COc1ccc(Cc2nnc(SCC(=O)Nc3ccc(OC)cc3)o2)cc1
  -2.5 | /
> Cc1ccccc1NC(=O)CSC1=Nc2ccccc2C2CC=NN12 (configuration not stated)
  1.0 | /
> CCn1cc(C(=O)N=c2sc3ccccc3n2C)c(=O)c2ccc(C)nc21
  -2.4 | /
> CCOC(=O)c1[nH]c2ccccc2c1-n1cccc1
  / | 0.24

# (further entries)
# Each structure is followed by: BasE inh | LANA-nucl inh
> COC(=O)c1c(N)c(C#N)c2n1CCC2
  14.3 | /
> CCN1CCC(N2CCN(c3ccccc3)CC2)CC1
  1.7 | -1.32
> OCc1nc2cc3ccccc3cc2[nH]1
  1.5 | /
> Cc1cccc(Oc2nc3c4c(C)c(C)oc4ncn3n2)c1
  -1.5 | /
> COC(=O)c1cc2oc(C)cc2n1Cc1nc(-c2ccc(C)cc2)oc1C
  3.1 | 0.229
> O=C(O)CCCN1C(=O)c2cccnc2Oc2ccc(Cl)cc21
  1.4 | 0.27
> Cc1cc(C(=O)Cn2ncc(Cl)c(Cl)c2=O)c(C)n1-c1ccc2c(c1)OCCO2
  -0.8 | /
> CCOc1ccc(S(=O)(=O)/N=C2/C=C(Sc3ncn[nH]3)C(=O)c3ccccc32)cc1
  2.6 | -0.707
> CCCNC(=O)N1CCN(CC)CC1
  2.7 | -1.06
> Cc1cccc(N2CCN(S(=O)(=O)c3ccc(Cl)nc3)CC2C)c1 (configuration not stated)
  1.1 | /
> CCOC(=O)C1=C(C)NC(C)=C(C(=O)OC)C1c1cccc([N+](=O)[O-])c1 (configuration not stated)
  2.5&0.7 | -0.0075&-0.275&0.268&0.0885&-0.135
> CCn1c2ccccc2c2cc(CO)ccc21
  0.5 | -1.21
> NC1=NN(c2cccc(C(=O)O)c2)C(=O)C1
  -1.1 | 0.314

# Only part of the results is shown, so the mix of outcomes need not match the whole.
